AmpC inh no det: inhibitors of E. coli AmpC beta-lactamase without detergent; AID 585; AmpC nitrocefin hydrolysis, absorbance 480 nm, no detergent; potencies from a single point are estimates; Potency, µM (doses to about 28.7 µM), without a hit: at the top dose activity change, negative = inhibition; P00811; 1.8% of 71,000 active; active = falling curve, for most hits resting on a single point; inconclusive = weak or doubtful change; inactive = flat or rising curve; also: % of control where 0% means no effect; about half of the hits show no inhibition at the top dose; a quarter of the inactives give rising signals
Target sequence (P00811 whole entry, looked up): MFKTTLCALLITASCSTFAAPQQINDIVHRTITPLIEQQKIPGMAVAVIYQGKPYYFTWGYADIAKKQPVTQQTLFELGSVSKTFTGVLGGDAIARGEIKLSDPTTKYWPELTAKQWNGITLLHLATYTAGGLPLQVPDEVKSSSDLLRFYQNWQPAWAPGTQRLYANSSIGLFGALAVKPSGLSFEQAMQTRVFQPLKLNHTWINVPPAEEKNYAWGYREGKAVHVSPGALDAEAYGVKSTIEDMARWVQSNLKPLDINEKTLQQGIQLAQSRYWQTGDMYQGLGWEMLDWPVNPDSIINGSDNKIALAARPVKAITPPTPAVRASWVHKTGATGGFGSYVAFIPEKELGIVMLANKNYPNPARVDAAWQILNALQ
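AmpC in 20 mM phosphate buffer pH 7.0 was preincubated 15 min at room temperature with compounds. Nitrocefin (800 uM stock) was then added and hydrolysis followed at 480 nm every 20 s for 4 min.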
* marks the source's active call; other numbers are inactive results; ? = inconclusive; [ ] = another dose, or the depositor's remark. Potency is read from the fitted curve at half-maximal effect.

SMILES	AmpC inh no det
O=C(NCCCN1CCOCC1)c1ccc(CNS(=O)(=O)c2ccc(F)cc2)cc1	-2.3%
CN1CCN([C@@H]2Cc3ccccc3Sc3ccc(Cl)cc32)CC1	62.8%
CN(C)S(=O)(=O)N1CCc2ccccc21	-5.6%
COCCn1c(=O)[nH]c2cc(C(=O)N3CCN(Cc4ccc5c(c4)OCO5)CC3)ccc2c1=O	53.0%
CN(CCNC(=O)c1ccc(N2CCCC2=O)cc1)CCc1ccccc1	7.2%
CSC(=NCc1cccnc1)NS(=O)(=O)c1cccs1	-3.3%
COc1ccc(C)cc1NC(=O)CSc1nnc(-c2cc3cccc(OC)c3o2)n1N	4.7%
O=C(Nc1ccc(CN2CCOCC2)cc1)c1cc2ccccc2o1	37.6%
COc1ccc(Nc2oc(COc3ccc(Cl)cc3)nc2C#N)cc1	-7.9%
COc1ccc(S(=O)(=O)c2ccc(OC)c(OC)c2)cc1OC	14.6%
CCOC(=O)CCn1c(=O)c2c(nc(Br)n2Cc2ccccc2)n(C)c1=O	64.2%
CN(C(=O)c1ccccc1Cl)c1ccccc1	15.2%
COc1cccc(C(c2nnnn2Cc2ccco2)N2CCN(c3cccc(C)c3C)CC2)c1OC (centres undefined)	20.5%
CC(NC(=O)c1ccnc(C(C)(C)C)c1)c1ccccc1 (centres undefined)	20.4%
COCCCN(C)C1CCN(C(=O)Nc2ccc(F)cc2)CC1	-1.2%
CN1Cc2c(ccc3c2OCO3)[C@@H]2[C@@H](O)Cc3cc4c(cc3[C@@H]21)OCO4	22.5%
CCn1c(Cc2cccn2C)nnc1SCC(=O)c1ccc(C)cc1	79.4%
O=C(CCCn1c(=S)[nH]c2ccccc2c1=O)NCc1ccco1	-12.1%
O=C(CCNS(=O)(=O)c1ccc(Cl)cc1)N1CCC2(O)CCCCC2C1 (centres undefined)	5.9%
COC(=O)[C@@]1(Cc2ccccc2)[C@H]2c3cc(C(=O)N4CCCC4)n(CCc4ccccn4)c3C[C@H]2CN1C(=O)c1ccccc1	170.3%
O=C(NCc1ccccc1)c1noc2c1CCCC2	2.8%
COc1ccc(S(=O)(=O)N2CCN(CC(=O)Nc3ccc(C)c(F)c3)CC2)cc1	50.6%
Cc1nc2sccn2c1P(c1c(C)nc2sccn12)c1c(C)nc2sccn12	44.9%
Cc1ccc2c(c1)nnn2C1CCN(S(=O)(=O)c2ccc(C(=O)N3C(C)CCCC3C)cc2)CC1 (centres undefined)	91.4%
Cn1c(C(=O)NCCCN2CCCCCC2)cc2c(=O)n(C)c3ccccc3c21	130.4%
Cn1ncc(C#N)c1/N=C/N1CCCCC1	-13.0%
CN1CCc2c(sc3c2C(=O)NC(c2cccs2)N3)C1 (centres undefined)	21.7%
C1CCc2nnnn2CC1	2.0%[12.8 µM]
CCOc1cc(C2c3c(n[nH]c3C)C(=O)N2c2ccc(Br)cc2)ccc1O (centres undefined)	25.8%
CC1CCc2c(sc(NC(=O)c3ccc(Cn4cc(Br)cn4)o3)c2C(N)=O)C1 (centres undefined)	-17.9%
COc1ccccc1CNC(=O)Cn1cc2c(n1)CCCC2	17.2%
Cc1cnc(CNc2ncncc2-c2ccccc2C)cn1	9.3%
O=c1cc(CNC2CCCCC2)c2ccccc2[nH]1	-17.9%
O=C(c1cccc(F)c1)N1CCN(Cc2ccco2)CC1	2.1%
Cc1cc(NC(=O)CSCCc2ccncc2)no1	1.0%
C[C@H]1CCC[C@@H](O)CCC/C=C/c2cc(O)cc(O)c2C(=O)O1	-10.1%
COCCOC(=O)C1=C(C)N=C2SCCC(=O)N2C1c1ccc(OC(=O)c2ccco2)cc1 (centres undefined)	51.1%
Cc1cc(C)n2nc(C(=O)OCC(=O)c3cc(C)n(C)c3C)nc2n1	8.7%
c1ccc2c(Nc3ccncc3)nc(-c3ccoc3)nc2c1	27.6%
CC(=O)N1CCC2(CC1)CCN(c1cccc(-c3ccccc3)c1)CC2	159.2%

Structural class, those above with fluorine
SMILES	AmpC inh no det
O=C(NCCCN1CCOCC1)c1ccc(CNS(=O)(=O)c2ccc(F)cc2)cc1	-2.3%
COCCCN(C)C1CCN(C(=O)Nc2ccc(F)cc2)CC1	-1.2%
COc1ccc(S(=O)(=O)N2CCN(CC(=O)Nc3ccc(C)c(F)c3)CC2)cc1	50.6%
O=C(c1cccc(F)c1)N1CCN(Cc2ccco2)CC1	2.1%

Going on with the list:
SMILES	AmpC inh no det
COc1cc(NC(=O)Nc2cccc(Cl)c2)c(OC)cc1NC(=O)CN1CCCCC1	?
CCCn1c(C)cc(C(=O)CSc2nnc3n(CCC)c(=O)c4ccccc4n23)c1C	9.2%
CCCN(CCC)CCCNC(=O)CC(C(=O)N1CCc2ccccc21)n1ccnc1 (centres undefined)	-6.0%
CCOc1ccc(NC(=O)c2ccc3c(c2)N(Cc2ccc(F)cc2)C(=O)CS3=O)cc1 (centres undefined)	33.4%
C=CCOc1ccc(C2C(C(=O)c3ccco3)=C(O)C(=O)N2CCCN(CC)CC)cc1 (centres undefined)	6.7%
COC(=O)c1cc(OC)c(OC)c(OC)c1NC(=O)c1ccc(S(=O)(=O)N(C)C)cc1	18.3%
Fc1c(F)c(C(F)(F)F)c(F)c(F)c1N1CCN(c2ccc3nnc(C(F)(F)F)n3n2)CC1	1.7%
O=C(c1cc2n(n1)C(C(F)(F)F)CC(c1ccc(F)cc1)N2)N1CCCC1 (centres undefined)	97.0%
CCn1c(SCC(=O)N2CCOCC2)nc2c(c1=O)SC(C)C2 (centres undefined)	4.0%
O=C(CCCc1nc(-c2ccc(Cl)cc2)no1)N1CCOCC1	48.5%
Cn1c(O)c(C(=O)c2ccccc2)c(=O)n(C)c1=O	1.7%
CC1=C(C(=O)N(C)CCC#N)C2(CCCCC2)OC1=O	-4.3%
Nc1ncnc2nc(SCCN3CCCCC3)[nH]c12	-8.0%
COc1ccc(CN2CC3CC(C2)c2cccc(=O)n2C3)cc1OC (centres undefined)	17.9%
CCc1ccccc1N1CCN(S(=O)(=O)c2cc(OC)ccc2OC)CC1	19.1%
CCN1CCN(Cc2ccc(C)cc2C)CC1	-1.7%
Cc1cccc(OCCCn2ccnc2)c1	-4.4%
O=C(NCCCN1CCOCC1)c1ccco1	-2.3%
Cc1cccc2cc(C(c3nnnn3Cc3ccccc3)N3CCN(C)CC3)c(=O)[nH]c12 (centres undefined)	10.2%
CCOC(=O)N1CCN(C(=O)Nc2ccc3oc(C)nc3c2)CC1	9.1%
CCS(=O)(=O)N1CCC(C(=O)OCC(=O)c2ccc(Br)cc2)CC1	17.9%
C[N+](C)(C)CCNC(=O)c1c(O)c2c([nH]c1=O)CCCC2	-2.9%
C=CCN1C(=O)C(O)(CC(=O)c2ccc(-n3cccc3)cc2)c2ccccc21 (centres undefined)	-6.9%
CC(C)Cn1cnc2c(SCc3ccccn3)nc(N)nc21	2.8%[5.75 µM]
CN(C)c1ncc2nc(-c3cc(F)cc(F)c3)c(=O)n(C3CC3)c2n1	-5.5%
O=C(c1ccco1)N1CCC2(CC1)CCN(c1ccccn1)CC2	54.8%
Cc1cccc(C)c1OCC(O)Cn1ccnc1C (centres undefined)	3.98µM*[single pt active]
Cc1cccc(C)c1NC(=O)Nc1cccs1	-9.7%
CCCOc1ccc2oc(=O)c3c(c2c1)CCCN3C(=O)CN1CCCC(C(=O)OCC)C1 (centres undefined)	102.0%
NS(=O)(=O)c1ccc(S(=O)(=O)NCCc2ccccc2)cc1	-16.4%
COc1ccc(OC)c(N/C(=N\c2nc(C)cc(C)n2)NC(=O)c2ccco2)c1	32.2%
COC(=O)c1cc2c([nH]c3ccccc32)c(C)n1	141.1%
COc1ccc(OC)c(CNC(=O)C2CCN(C(=O)N(C)C)CC2)c1	-17.2%
COc1ccc2[nH]c(-c3ccccc3)c(CCNC(C)=O)c2c1	28.1%
CNc1oc(-c2cccc3ccccc23)nc1C#N	5.9%
O=C(NCC1CCCO1)c1c(O)c2c([nH]c1=O)CCCC2 (centres undefined)	-10.4%
COc1cccc2cc(C(=O)NC(C)C3CCCO3)c(=O)oc12 (centres undefined)	-12.0%
Oc1ccccc1C1=Nc2ncnn2C(c2ccccc2)C1 (centres undefined)	10.2%
c1ccc(Nc2ccc3ccccc3c2)cc1	-8.3%
CCOC(=O)N1CCN(C(=O)CSc2ccccc2)CC1	7.0%
O=C(CSc1ccc2nnc(-c3ccncc3)n2n1)N1CCc2ccccc21	-1.6%
CCOc1ccc(NC(=O)CSc2nc3c(c(=O)n2-c2ccccc2OC)SCC3)cc1	51.2%
O=S(=O)(NCCOc1ccc(F)cc1)c1ccc2c(c1)OCCO2	-1.1%
CCOC(=O)N1CCC(NC(=O)CCN2C(=O)COc3ccccc32)CC1	0.0%
Cn1c(=O)c(-c2ccc(Cl)cc2)nc2cnc(N3CCOCC3)nc21	-9.5%
CC(SCc1ccccc1)C(=O)NC1CCCC1 (centres undefined)	10.9%
O=C(c1ccco1)n1nc(-c2ccc(Cl)cc2)nc1NCc1ccco1	-15.9%
CCOC(=O)CCc1nc2ccccc2[nH]c1=O	-3.7%
O=C(Oc1ccc(Cl)c2cccnc12)N1CCOCC1	-10.8%
CCOC(=O)Cc1csc(NC(=O)COc2ccc(N(C)S(=O)(=O)c3cccs3)cc2)n1	-9.9%
O=c1n(-c2cccc(Cl)c2)c(=O)n2n1CCC2	2.4%
COc1ccc(CNC(=O)CS(=O)Cc2nc(-c3ccc(C)cc3)oc2C)cc1 (centres undefined)	114.3%
COCc1nnc(NS(=O)(=O)c2ccc(Br)cc2)s1	-16.4%
Cc1onc(-c2ccccc2)c1C(=O)N1CCCN(C(=O)c2c(-c3ccccc3)noc2C)CC1	131.3%
COc1ccc(CNc2ccnc(-c3cccnc3)n2)c(OC)c1	62.3%
CCCn1c(O)c(CN2CCCCC2)c(C)c(C#N)c1=O	-20.3%
CCCCc1c(O)n2c(nc3ccccc32)[nH]c1=O	-14.5%
O=C(O)c1ccc(CN(c2ccccn2)S(=O)(=O)c2ccccc2)cc1	-8.1%
Cc1cc(NC(=O)c2cc(C)on2)no1	7.4%
O=C(CN1CCN(S(=O)(=O)c2cc(Cl)ccc2Cl)CC1)Nc1ccc2c(c1)OCCO2	38.4%

Molecules listed so far that have a cyano group:
SMILES	AmpC inh no det
COc1ccc(Nc2oc(COc3ccc(Cl)cc3)nc2C#N)cc1	-7.9%
Cn1ncc(C#N)c1/N=C/N1CCCCC1	-13.0%
CC1=C(C(=O)N(C)CCC#N)C2(CCCCC2)OC1=O	-4.3%
CNc1oc(-c2cccc3ccccc23)nc1C#N	5.9%
CCCn1c(O)c(CN2CCCCC2)c(C)c(C#N)c1=O	-20.3%

In the list so far, these contain a CF3 group:
SMILES	AmpC inh no det
Fc1c(F)c(C(F)(F)F)c(F)c(F)c1N1CCN(c2ccc3nnc(C(F)(F)F)n3n2)CC1	1.7%
O=C(c1cc2n(n1)C(C(F)(F)F)CC(c1ccc(F)cc1)N2)N1CCCC1 (centres undefined)	97.0%

Further entries
SMILES	AmpC inh no det
Cc1cc(C(F)(F)F)nc(SCC(=O)Nc2ccccc2)n1	26.9%
CCCOc1ccc(C2c3c(oc4cc(C)c(C)cc4c3=O)C(=O)N2CCCN2CCOCC2)cc1 (centres undefined)	163.1%
COC(=O)C1C(=O)CC(C)(O)C(C(=O)OC)C1c1ccc2c(c1)OCO2 (centres undefined)	-3.9%
Cc1cc(C)nc(NCC(O)CNc2ccccc2Cl)n1 (centres undefined)	29.6%
CCOC(=O)C1=C(C)OC(N)=C(C(=O)OC)C12C(=O)Nc1ccc(Br)cc12 (centres undefined)	64.0%
CC(C)(COCC1CO1)COCC1CO1 (centres undefined)	2.7%
Cc1ccc(N2C(N)=C(C#N)C(c3cccnc3)C3=C2CCCC3=O)cc1 (centres undefined)	9.9%
COc1ccc(-c2cc(C(F)(F)F)n3nc(C(=O)Nc4cc(C)on4)cc3n2)cc1OC	122.6%
Nc1nonc1-n1nnc(C(=O)O)c1-c1cccs1	-20.0%
CN(C(=O)c1ccncc1)c1nnc(-c2cccnc2)s1	-9.3%
CCN(CC)C(=O)COc1ccc(Br)cc1Cl	6.5%
Cc1nc2ccccn2c1P(=Nc1ccccc1)(N(C)C)N(C)C	-7.4%
Cc1ccc(S(=O)(=O)NCC2CCC(C(=O)NCCCN3CCOCC3)CC2)cc1 (centres undefined)	33.3%
O=C(O)c1cc(Cl)cc(Cl)c1	-15.6%
O=C(NC1CCCCCCC1)C1CCC(CNc2c(N3CCCC3)c(=O)c2=O)CC1 (centres undefined)	-4.8%
Cc1ccc(S(=O)(=O)NCC(c2cccnc2)N(C)C)cc1 (centres undefined)	-6.1%
O=C(C1CCN(S(=O)(=O)N2CCOCC2)CC1)N1CCN(Cc2ccc3c(c2)OCO3)CC1	67.4%
Cc1nnc(NC(=O)CCSc2ccccc2)s1	-10.8%
COc1ccc(NC2=NC3(CCCCC3)N=C(N)N2)cc1	-18.0%
Cn1cccc1C(=O)N1CCC2(CCCN(c3ccccc3)C2)CC1	107.4%
Cc1cccc(NC(=O)c2oc3c(c2C)C(=O)CC(C)(C)C3)n1	33.3%
COc1ccc(OCCOC(=O)Nc2ccccc2)cc1	0.5%
Cc1ccc(-n2c(Cc3cccn3C)nnc2SCC(=O)NCc2ccco2)cc1	76.3%
CC(C)CC(NS(=O)(=O)c1ccc2c(c1)oc(=O)n2C)C(=O)N1CC=C(c2ccccc2)CC1 (centres undefined)	87.9%
COC(=O)C1(C(=O)OC)Sc2ccccc2C1=O	0.6%
Cc1ccc(CCNC(=O)CC2Oc3ccc(C)cc3NC2=O)cc1 (centres undefined)	3.98µM*[single pt active]
COc1ccc(C(=O)N2CCN(c3ccc(C)cc3)CC2)cc1OC	92.9%
COc1ccc(-n2c(=S)[nH]c3cc(C(=O)NCCCN4CCCC4=O)ccc3c2=O)cc1	31.8%

This is a subset, so the mix of outcomes need not match the whole.
